Compound activity: PubChem, Fisher Drug Discovery Resource Center
NPYLR7 agonist – activates Aedes aegypti NPYLR7 receptor; activation, % at 10 µM; HEK293T NPYLR7/Galpha15, GCaMP6s calcium fluorescence; 0.15% of 270,000 active; AID 1259423; in the data active = activation above about 40%;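 note: 0% = vehicle and 100% = reference agonist at the receptor; some compounds past the cut are filed as inactive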
NPYLR7 agonist max-min – also measured in NPYLR7 agonist; calls as there; activation, %; measured here: Max-Min RFU normalised activation; some inactives read as strong as hits;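 span of the calcium signal over five minutes; 0% = vehicle and 100% = native peptide agonist; compound fluorescence can raise it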
An asterisk follows results filed as active; & = joins results of further samples. The list is partial; the hit share may differ from the screen's.

Sequence of screens: NPYLR7 agonist	NPYLR7 agonist max-min
> CCOC(=O)C(c1cc(OC)ccc1OC)C1C=CC(NC(=O)c2ccc([N+](=O)[O-])o2)C1 (stereo unspecified)
 : 4.5	5.4
> O=C(Nc1cnc2n1CCCC2)c1cc2ccccc2o1
 : 23.5	12.4
> CCOc1ccccc1CNC(=O)c1c(C)noc1-c1ccc2c(c1)OCO2
 : 13.0	7.9
> CC(=O)Nc1cc(NC(C)=O)cc(C(=O)OCc2c(F)cccc2Cl)c1
 : 6.4	4.0
> CCCn1c(C)c(CC(=O)N(C)Cc2cccnc2)c2c1CC(C)(C)CC2=O
 : -9.1	-10.3
> CCN1C(=O)/C(=C/c2ccc(N(C)C)cc2)SC1=S
 : -3.6	-5.2
> CNC(=S)NN=Cc1sc(N2CCCCC2)nc1-c1cccs1
 : 0.3	-3.3
> CCOC(=O)CN(C)C(=O)C1(N2CCCCC2)Cc2ccccc2C1
 : -2.3	-5.7
> COCCNS(=O)(=O)c1ccc(OC)c(N2CCN(S(=O)(=O)c3ccc(OC)c(OC)c3)CC2)c1
 : 26.3	10.9
> O=C(Cn1nc(-c2ccccc2)c2sc(N3CCCC3)nc2c1=O)c1ccccc1
 : -2.9	-7.7
> COCC(=O)N1C[C@H](C(N)=O)[C@H]2c3ccccc3NC(=O)[C@]21C
 : -0.4	10.8
> CCn1nc(C(=O)NNC(=O)CSc2ccc(OC)cc2)c2ccccc2c1=O
 : 1.2	0.3
> CCC(NC(=O)CNC(=O)c1cccs1)c1ccc(Cl)cc1 (stereo unspecified)
 : 1.0	-0.4
> CCCn1c(=O)c(C(=O)O)nn(-c2ccc(C)cc2)c1=O
 : 22.6	12.6
> C=CCCC(=O)Nc1c(-c2cccc(F)c2)cn(C)c1C(=O)OCC
 : 0.1	-3.2
> N#Cc1c(NC(=O)COC(=O)CC23CC4CC(CC(Br)(C4)C2)C3)sc2c1CCCC2
 : 4.4	3.9
> Cc1cc(CS(=O)(=O)Cc2ccccc2Cl)no1
 : 1.4	1.4
> CCCCCN(CC(=O)N(CCc1ccc(OC)c(OC)c1)Cc1ccc(C)o1)S(=O)(=O)c1ccccc1
 : 0.6	11.3
> COc1ccc2[nH]c(=O)c(CN3C[C@H](O)[C@@H](N4CCN(C)CC4)C3)cc2c1
 : -2.7	-8.6
> C=CCn1cc(CN(C)Cc2cnn(-c3cccc(C)c3)c2)c(C)n1
 : -2.8	-1.7
> CCN(CC)C(=O)Oc1ccc2c(ccn2Cc2ccc(C(F)(F)F)cc2)c1-c1cc(F)cc(F)c1
 : 33.7	27.4
> Cc1c(F)cccc1N1C(=O)CSC1c1ccc(NC(=O)c2cccc(Cl)c2)cc1 (stereo unspecified)
 : -1.7	-1.3
> CCOc1cccc(-c2ccc(CN3CCOCC3)cn2)c1
 : -3.5	-2.6
> O=C(Nc1ccc(-c2ccccc2)nn1)c1cscn1
 : 4.4	1.6
> CCOCCN1CCN(Cc2nnc(C3CC3)o2)CC1C (stereo unspecified)
 : 4.6	6.3
> O=C(CC(c1cccc(F)c1)c1cn(Cc2ccccc2)c2ccc([N+](=O)[O-])cc12)N1CCCC1 (stereo unspecified)
 : -0.9	7.8
> O=c1cc(CN2CCN(CC(F)(F)F)c3ccccc32)occ1O
 : -4.7	-6.6
> CCN(CCN1C(=O)C(C)SC1c1ccc(C)cc1)C(=O)NC(C)C (stereo unspecified)
 : 0.9	10.1
> CCc1ccc(-c2noc(CSc3n[nH]c(-c4ccc(C)cc4)n3)n2)cc1
 : -0.1	3.8
> Cc1cc(C2=NNC(=NC(C)(C)C)SC2)c(C)n1-c1ccccc1
 : 2.7	-2.8
> Cc1ccc(S(=O)(=O)Nc2ccc(F)cc2C)c(C)c1
 : 1.6	4.0
> C=CCNc1nnc(SCC(=O)NN=C2CC3CCC2(C)C3(C)C)s1 (stereo unspecified)
 : -0.5	33.4
> COc1ccc(Cl)cc1S(=O)(=O)Nc1ccccc1C(=O)NCc1cccc(Cl)c1
 : 1.3	-6.0
> O=C(Nc1ccc(I)cc1)C1CC(=O)N(CCO)C(=Nc2ccccc2)S1 (stereo unspecified)
 : 1.9	-0.6
> CC(Cl)C(=O)N1CCC(CCc2ccc3c(c2)OCO3)CC1 (stereo unspecified)
 : 0.7	6.2
> CCC1CN(C(=O)C(C)C)CCC1NCc1cnc2cc(C)ccn12 (stereo unspecified)
 : 8.4	10.6
> CS(=O)(=O)Nc1ccc(NS(C)(=O)=O)c2ccccc12
 : 7.2	5.2
> Cc1cc(C)cc(NCCCn2c(C)cn3c4c(=O)[nH]c(=O)n(C)c4nc23)c1
 : -16.2	-17.4
> CCOC(=O)c1c(NC(=O)CN(CC(N)=O)C(C)C)sc2c1CCC(C)C2 (stereo unspecified)
 : 10.9	0.2
> Cc1cc(C(=O)COc2ccccc2C(=O)N2CCOCC2)c(C)n1C
 : 1.9	-0.6
> COc1ccc(-c2ccc3c(c2)COC2(CCN(C(=O)c4ccc(F)c(F)c4)CC2)O3)c(OC)c1
 : -10.0	-14.6
> CC(C)CC(C)NC(=O)c1ccc2nc(-c3ccccc3)c(-c3ccccc3)nc2c1 (stereo unspecified)
 : -16.2	-21.8
> CC(C)Sc1ncnc2c1nnn2C
 : -0.7	26.6
> O=C(c1ccnc(Cl)c1)N(CCc1ccc(F)cc1)C1CCCC1
 : 0.1	-1.4
> Cc1c(C(=O)N2CCC(O)(C(=O)O)CC2)sc2ccccc12
 : -2.1	-1.7
> O=C(c1cccc(F)c1)N1CCC2(CC1)SCCN2C(=O)c1ccc(C(F)(F)F)cc1
 : 16.1	26.5
> COCCN(CC(=O)N1CCc2sccc2C1c1ccc(Cl)cc1)C(=O)c1ccccc1OC (stereo unspecified)
 : 5.6	3.9
> Cc1oc(-c2cccs2)nc1CN1CCCC(Nc2ccccc2)C1 (stereo unspecified)
 : -3.6	-5.6
> COc1ccc(CCCC(=O)N2CCC3(CCCNC3)C2)cc1 (stereo unspecified)
 : 1.8	2.0
> CCN(CC1CCCO1)C(=O)C1CCCN(c2nc(C)c3ccc(OC)cc3n2)C1 (stereo unspecified)
 : 13.4	1.4
> Cc1ccc(S(=O)(=O)N2CCN(C(=O)NCC3CN(CC(C)C)CCO3)CC2)cc1C (stereo unspecified)
 : -1.7	-2.6
> O=C(c1cccnc1Cl)N1CCN(c2nccc(-c3ccc(-n4ccnc4)cc3)n2)CC1
 : 20.5	27.6
> CCOC(=O)c1c(NC(=O)c2cc(Cl)nc(OC)c2)c(-c2ccc(OC)cc2)cn1Cc1ccccc1
 : 18.0	6.7
> O=C(NCC(c1cccnc1)N1CCOCC1)c1nc(N2CCCC2)nc2c1CCCC2 (stereo unspecified)
 : 5.2	2.2
> COc1ccc(-n2c(C)cn3c4c(=O)n(C)c(=O)n(C)c4nc23)c(OC)c1
 : 1.5	-0.8
> O=S(=O)(c1ccc(Cl)cc1)N1CCN(c2cc(Oc3ccc(F)cc3)ncn2)CC1
 : 10.9	9.7
> CCCc1ncc(C(=O)N(C)c2ccccc2S(C)(=O)=O)s1
 : 6.7	4.0
> Cc1ccc2[nH]c3c(c2c1)CN(C(=O)CCN1CCCCO1)CC3
 : 21.5	13.8
> CC(O)CNc1nc(NCc2ccccc2)c2cnn(C)c2n1 (stereo unspecified)
 : 9.7	6.2
> CC(C)(C)C(=O)NCC(=O)NC1=NCCS1
 : -4.3	-3.5

Arranged by SMILES length (lowest first): 4 of the compounds above.
Sequence of screens: NPYLR7 agonist	NPYLR7 agonist max-min
> CC(C)Sc1ncnc2c1nnn2C
 : -0.7	26.6
> Cc1c(C(=O)N2CCC(O)(C(=O)O)CC2)sc2ccccc12
 : -2.1	-1.7
> O=C(NCC(c1cccnc1)N1CCOCC1)c1nc(N2CCCC2)nc2c1CCCC2 (stereo unspecified)
 : 5.2	2.2
> COCCN(CC(=O)N1CCc2sccc2C1c1ccc(Cl)cc1)C(=O)c1ccccc1OC (stereo unspecified)
 : 5.6	3.9

Going on with the list:
Sequence of screens: NPYLR7 agonist	NPYLR7 agonist max-min
> O=S(=O)(Nc1ccc2c(c1)OCO2)c1c(Cl)cc(Br)cc1Cl
 : -7.3	-11.7
> CCc1ccc(-c2noc(COC(=O)c3cc(S(=O)(=O)N4CCCC4)ccc3Cl)n2)cc1
 : 1.2	2.7
> O=C(COc1nsnc1N1CCOCC1)NC1CCCC1
 : 0.3	-1.0
> COc1ccc(NC(=O)NCc2sc(C)nc2C)cc1C
 : -0.4	-1.0
> Cc1sc(-n2cccc2)c(C(=O)N2CCN3C(=O)CNC(=O)C3C2)c1C (stereo unspecified)
 : -3.6	-4.4
> Cc1ccccc1C1c2[nH]c3ccccc3c2CCN1Cc1ncc[nH]1 (stereo unspecified)
 : 5.0	9.1
> CCOC(=O)c1sc(N2C(=O)C(O)=C(C(=O)c3cccs3)C2c2ccc(F)cc2)nc1C (stereo unspecified)
 : 3.6	1.4
> CON(C)C(=O)c1nn(Cc2ccccc2)c(=O)c2ccccc12
 : -0.6	4.9
> COc1ccc(OC)c(C(C)n2cnc(-c3ccccc3)c2-c2cnc[nH]2)c1 (stereo unspecified)
 : -1.7	-5.5
> CCCOC1=NN=C(Oc2nc(NCC)cc(N(C)C)n2)CC1
 : -4.4	-6.6
> COc1ccc(C=CC(=O)N2CCC2)cc1S(=O)(=O)N1CCOCC1
 : -9.4	-9.2
> O=C(CSc1nc2c(c(=O)n1-c1ccccc1)SCC2)N1CCCc2ccccc21
 : -1.0	-3.6
> O=C(NCc1cccnc1)c1cc(N2[C@@H]3CC[C@H]2CC(O)C3)ccn1 (stereo partly specified)
 : -1.3	-1.4
> Cc1ccc(CN2CCCCC2c2ccccn2)o1 (stereo unspecified)
 : -2.5	11.5
> Cc1cc(NC2CC(=O)N(Cc3ccccc3C(F)(F)F)C2)nc(N)n1 (stereo unspecified)
 : -3.2	-6.7
> COc1ccc(OCCNC(=O)c2ccc3nc(C)c(N(C)C(=O)Nc4ccc(C(C)=O)cc4)n3c2)cc1
 : 13.4	12.2
> CCN(Cn1[nH]c(C(C)(C)C)nc1=S)C1CCS(=O)(=O)C1 (stereo unspecified)
 : 4.6	10.0
> O=C(CSc1nnc(-c2ccc(Cl)cc2)n1-c1ccccc1)N/N=C\c1ccc(Cl)c(Cl)c1
 : -6.1	-8.3
> Cn1c(=NN=Cc2ccccc2C(F)(F)F)sc2ccccc21
 : -2.7	-3.2
> COc1ccc(C2NC(=O)NC3=C2C(=O)N(CCC(C)C)C3)cc1OC (stereo unspecified)
 : 1.4	-1.3
> CCCCNC(=O)COc1c(C)cc(Br)cc1C
 : -1.6	4.0
> Cc1ccc(CCNCC2(O)CCCN(Cc3ccc(F)c(F)c3)C2=O)o1 (stereo unspecified)
 : -2.0	-3.6
> O=S(=O)(Nc1ccc(F)cc1Cl)c1ccc(S(=O)(=O)N2CCCC2)cc1
 : 0.3	5.9
> COc1ccc(Cl)cc1CN1c2cccc3cccc(c23)S1(=O)=O
 : 2.4	1.1
> O=C(Cc1ccccc1)NC1CCN(c2ccccc2C(=O)NC2CCCc3ccccc32)CC1 (stereo unspecified)
 : 1.3	7.0
> CN1CCCC(n2nc(Cc3ccc(Cl)cc3)c3ccccc3c2=O)CC1 (stereo unspecified)
 : 9.0&-14.2	3.1&-21.5
> COc1ccc(CC(=O)O)cc1S(=O)(=O)N1C[C@@H]2[C@@H]3CC[C@@H](C3)[C@@H]2C1
 : 6.3	4.5
> CCN(CC)c1ccc(NC(=O)c2cc(F)c(F)cc2Cl)cn1
 : 9.1	10.3
> COc1cc(-c2nc3ccccn3c2NC2CCCCC2)ccc1OC(=O)c1ccc(Cl)cc1
 : 13.5&13.9	14.1&15.0
> CSc1nn(CC(=O)Nc2ccc(Cl)cc2)c(N)c1S(=O)(=O)c1ccc(C)cc1
 : -11.9	-11.2
> CN(C)C(=S)Nc1ccccc1Cl
 : -0.1	3.0
> COCCOc1nc(-c2ccc(F)cc2)n(-c2ccc(NC(=O)Nc3cccc(OC)c3)cc2)n1
 : 16.8	26.3
> Cc1ccc(-c2cccc(C(=O)N3CCCC(Nc4ccc5c(c4)OCO5)C3)c2)o1 (stereo unspecified)
 : 2.7&9.5	1.7&11.6
> CC(C)(C)CC(=O)N1CCN(S(=O)(=O)c2ccc3ccccc3c2)CC1
 : -0.2	5.6
> Cc1ccc(Cl)cc1-n1c(SCc2ccc(F)cc2)nnc1C(Cc1ccccc1)NC(=O)Nc1cccc(F)c1 (stereo unspecified)
 : 0.8	8.7
> CCOC(=O)N1CCC(N(CCOC)CC2CCN(Cc3ccccc3F)CC2)CC1
 : -3.1	-9.2
> Cc1cnc(NC(=O)c2oc3ccccc3c2CSc2ncn[nH]2)s1
 : -2.0	-4.2
> Cc1cc(Oc2ccccc2C)nc(SCc2ccccc2F)n1
 : 1.2	9.6
> Cc1noc(C)c1S(=O)(=O)Nc1cc(-c2ccccc2)nn1C1CCS(=O)(=O)C1 (stereo unspecified)
 : -0.8	-1.0
> Cc1nc2c(c(C(F)(F)F)n1)CC(C(=O)O)CC2 (stereo unspecified)
 : -22.8	-19.8
> O=C(Nc1ccc(Oc2ccccc2)nc1)C1CCN(C(=O)C2CCCCO2)CC1 (stereo unspecified)
 : 5.0&2.3	3.0&-1.9
> O=C(Nc1nc(-c2ccc([N+](=O)[O-])cc2)cs1)c1cccc2ccccc12
 : -2.7	-4.9
> O[C@@H]1CN(Cc2cccc(C(F)(F)F)c2)CC[C@H]1N1CCCCCC1
 : 3.6	-0.2

For convenience, part of the list above:
Sequence of screens: NPYLR7 agonist	NPYLR7 agonist max-min
> O=S(=O)(Nc1ccc(F)cc1Cl)c1ccc(S(=O)(=O)N2CCCC2)cc1
 : 0.3	5.9
> COc1ccc(Cl)cc1CN1c2cccc3cccc(c23)S1(=O)=O
 : 2.4	1.1
> O=C(Cc1ccccc1)NC1CCN(c2ccccc2C(=O)NC2CCCc3ccccc32)CC1 (stereo unspecified)
 : 1.3	7.0
